Source: PubChem (National Center for Advancing Translational Sciences (NCATS))
miR-21 reporter – qHTS Assay for Modulators of miRNAs and/orActivators of miR-21; Potency, µM (highest dose often 38.3 µM), for the others: at the top dose reporter change, positive = more light; 340,000 tested, under 10 active; HeLa miR-21 FLuc reporter, luciferase, 48 h; AID 2288, 2010; active = well fitted rising curve with a large enough effect; inconclusive = small, poorly fitted or top-dose-only effect; inactive = no such curve, though single readings can be large or run the other way;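 note: % of control where 0% means no effect; miR-21 action dims this reporter so a rising signal means less miR-21 action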
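Compounds were titrated across several concentrations (up to approximately 40 uM) and incubated 48 hours with HeLa miR-21-FLuc reporter cells (miR-21 target sequence downstream of FLuc, endogenous miR-21). Readout was firefly luciferase luminescence after lytic detection reagent.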
Rango-impB inh – qHTS Assay for Inhibitors of Rango (Ran-regulated importin-beta cargo) - Importin beta complex formation | Rango CFP/YFP FRET sensor + importin beta, 45 min | Potency, µM (highest dose often 92.2 µM), inactives show at the highest dose inhibition of complex formation | 0.031% of 340,000 active; active = rising FRET ratio curve, often small or poorly fitted; inconclusive = mostly compound fluorescence or quenching in the first reads; inactive = flat curves in all reads;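 note: potency is the fitted concentration of half-maximal effect; 0% = DMSO wells and 100% = buffer wells lacking importin beta; nearly all actives have a fitted effect of over 15% in size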
Target sequence (Q14974 whole entry, looked up): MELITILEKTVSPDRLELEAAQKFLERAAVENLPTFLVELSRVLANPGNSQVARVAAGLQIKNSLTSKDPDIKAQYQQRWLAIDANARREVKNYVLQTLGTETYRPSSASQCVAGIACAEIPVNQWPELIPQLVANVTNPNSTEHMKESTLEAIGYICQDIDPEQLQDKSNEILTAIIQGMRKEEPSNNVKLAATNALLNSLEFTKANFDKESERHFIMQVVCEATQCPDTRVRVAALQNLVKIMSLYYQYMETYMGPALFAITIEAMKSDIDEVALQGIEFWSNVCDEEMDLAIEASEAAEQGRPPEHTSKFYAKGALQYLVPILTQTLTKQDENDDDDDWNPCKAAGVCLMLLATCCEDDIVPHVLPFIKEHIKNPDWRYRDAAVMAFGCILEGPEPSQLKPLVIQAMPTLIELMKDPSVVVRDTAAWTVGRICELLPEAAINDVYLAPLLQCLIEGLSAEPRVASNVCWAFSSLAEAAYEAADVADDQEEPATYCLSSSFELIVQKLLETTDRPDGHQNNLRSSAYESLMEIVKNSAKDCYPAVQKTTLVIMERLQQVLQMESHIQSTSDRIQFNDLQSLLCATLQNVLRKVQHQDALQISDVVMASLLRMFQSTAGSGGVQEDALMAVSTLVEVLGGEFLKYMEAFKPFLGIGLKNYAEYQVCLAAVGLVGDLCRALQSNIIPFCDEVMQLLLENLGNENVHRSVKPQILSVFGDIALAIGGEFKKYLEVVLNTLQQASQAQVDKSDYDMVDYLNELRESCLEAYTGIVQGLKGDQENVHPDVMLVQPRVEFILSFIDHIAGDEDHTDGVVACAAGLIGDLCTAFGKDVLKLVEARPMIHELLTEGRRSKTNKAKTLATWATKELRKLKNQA
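FRET biosensor Rango (snurportin 1 IBB between N-terminal EYFP and C-terminal Cerulean), 50 nM in PBS/1 mM DTT/0.02% Tween-20/0.1% BSA, preincubated 5 min RT with compound; 0.125 microM importin beta added, 45 min RT, CFP/YFP FRET ratio read.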
Rango release inh – qHTS Assay for Inhibitors of RanGTP induced Rango (Ran-regulated importin-beta cargo) - Importin beta complex dissociation. Potency, µM (titrated, usually from 46.1 µM), inactives show at the highest dose activity change, negative = inhibition. Snurportin-1 (Homo sapiens) + GTP-binding nuclear protein Ran (Homo sapiens) + Importin …. 0.071% of 340,000 active. Biochemical FRET Rango-importin beta, RanGTP-induced dissociation; active means falling FRET ratio curve, often poorly fitted, with flat reads before Ran was added; inconclusive means other falling curves, or compound fluorescence or quenching; inactive means flat or rising ratio curve;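 note: potency is the fitted concentration of half-maximal effect; % of control where 0% means no effect; nearly all actives have a fitted effect of over 45% in size; -100% = wells without RanGTP and RCC1; the record marks most hits as doubtful in a second field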
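Rango/importin beta premix (0.1/0.25 uM final), PBS + 1 mM DTT + 0.02% Tween-20 + 0.1% BSA; cpd 5 min RT; FRET pre-read; + RanGTP-RCC1 (0.6 uM Ran, 2 mM GTP, 0.2 uM RCC1); 45 min RT; FRET post-read, ex 430, em 486/530 nm.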
GLA inh pH 4.5 – qHTS Assay for Inhibitors of Human alpha-Galactosidase at pH 4.5 | purified enzyme, 4-MU-alpha-Gal fluorescence, pH 4.5 | activity change, negative = inhibition, % at 105 µM | Alpha-galactosidase A (Homo sapiens), P06280 | AID 1467, 2008 | 230,000 tested, under 10 active; inconclusive = small, poorly fitted or top-dose-only inhibition, or a rising curve; inactive = flat fitted curve, though single readings scatter; no compound was filed as active;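 note: 0% = full activity with enzyme and -100% = basal without enzyme; dose as in the result columns while the protocol names 77 µM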
Active calls of the source: *; u = inconclusive; x = not tested or not shown; & = joins results of further samples.

Fields – Rango-impB inh	Rango release inh	miR-21 reporter	GLA inh pH 4.5
O=C(CCc1ccc(S(=O)(=O)NC2CCCCC2)cc1)NCc1ccc(Cl)cc1
    -1.0%	-8%	10%	-16
CCN(CC)C(=O)c1ccc2c(c1)N(Cc1ccccc1)C(=O)CS2=O (stereo not drawn)
    -0.7%	-12%	-2%	0
Cn1nc(C(C)(C)C)cc1C(=O)Sc1cccc(Br)c1
    -4.3%	16%	-3%	2
O=C(Cc1ccc(Br)cc1)OCC(=O)c1ccc2c(c1)OCCO2
    0.9%	-3%	-11%	-3
Cc1oc(-c2ccccc2F)nc1CS(=O)CC(=O)NCc1ccc(F)cc1 (stereo not drawn)
    -0.5%	-5%	0%	x
CCC(=O)Oc1ccc(C(=O)Nc2ccc3c(c2)C(=O)N(C2CCCCC2)C3=O)cc1
    8.5%	-2%	-1%	-5
COCCN(C(=O)COC(=O)CCC1CCCC1)c1c(N)n(Cc2ccccc2)c(=O)[nH]c1=O
    u	-7%	x	x
COc1ccc([C@H]2[C@H](C(=O)OC(C)(C)C)N3N=Cc4ccccc4C3C23C(=O)c2ccccc2C3=O)cc1OC (stereo partly drawn)
    6.0%	-6%	-7%	6
COc1ccc(Oc2coc3cc(O)ccc3c2=O)cc1
    1.9%	-8%	-29%	x
O=C(Cc1csc(NC(=O)Nc2cccc(Cl)c2)n1)NC1CCCC1
    0.0%	0%	x	x
COc1ccc(Cc2nnc3c4cnn(C)c4ncn23)cc1
    -1.2%	5%	-7%	-7
O=C(c1ccco1)N1CCN(Cc2cc(=O)c(OCc3ccccc3)co2)CC1
    -0.5%	-11%	x	x
Cc1ccc(S(=O)(=O)Nc2ccccc2C(=O)NCC2CCCO2)cc1 (stereo not drawn)
    -2.0%	-14%	-6%	x
Cc1ccc(S(=O)(=O)N2CCN(CC(=O)Nc3ccc4c(c3)CCC4)CC2)cc1C
    -0.8%	-3%	-6%	-26
CC(=O)c1ccc(OCc2cc(=O)n3ccsc3n2)cc1
    -1.6%	-4%	-55%	11
CNc1nc(C(=O)O)nc(N2CCOCC2)n1
    -2.8%	0%	2%	5
COc1ccccc1-c1cc(C(=O)NCc2ccc(Cl)cc2)no1
    -2.8%	0%	-10%	-18
Cc1ccc(NC(=O)/C=C/c2cccc(C(F)(F)F)c2)cc1
    0.3%	-5%	-5%	3
CCc1cc2c(CN(C)Cc3ccccc3F)cc(=O)oc2cc1O
    u	u	24%	x
CCC(NC(=O)OC(C)(C)C)C(=O)Oc1ccc2c3c(c(=O)oc2c1)CCC3 (stereo not drawn)
    u	12µM*	-15%	u
Cc1ccc(S(=O)(=O)N[C@@H](C)C(=O)N2CCC(C(=O)N[C@@H](Cc3ccccc3)C(=O)O)CC2)cc1
    3.4%	-10%	1%	x
O=C(C[n+]1cc(Br)cc(Br)c1)c1ccc(-c2ccccc2)cc1
    0.7%	-9%	-6%	x
COc1cc(NC(=O)COC(=O)CNC(=O)c2ccc(C)cc2)c(C)cc1[N+](=O)[O-]
    -0.1%	-14%	0%	3
O=C(C[C@H]1C/C=C\CC[C@H](Cc2ccc(F)cc2)C(=O)OC[C@H]2CCCN2C1=O)NCCO
    1.5%	15%	x	x
COc1ccc(/C=N\NC(=O)COc2ccccc2Cl)cc1Cn1nc(C)cc1C
    0.9%	-7%	-3%	-1
O=C(NCC1CCN(Cc2cccc(Cl)c2)CC1)Nc1ccccc1Cl
    -0.9%	-1%	0%	x
CC1=CC(C)(C)NC(=S)N1c1ccc(C)cc1C
    3.8%	1%	7%	4
Cc1ccc(S(=O)(=O)/N=C/N(C)C)cc1
    -3.0%	9%	3%	-2
O=C(c1c(Cl)cccc1Cl)N1CCN(c2ccccn2)CC1
    5.1%	-19%	-3%	-2
COc1cc(S(=O)(=O)NC2CCCC2)ccc1-n1cnnn1
    0.2%	-20%	-1%	x
OCC1CCCN(Cc2ccc(-c3ccccc3)cc2)C1 (stereo not drawn)
    0.2%	4%	-15%	3
O=C(N/N=C/c1cccc(Br)c1)C1CC(=O)N(c2ccccc2)C1 (stereo not drawn)
    3.1%	5%	-4%	x
O=C(CN1C(=O)NC2(CCCc3ccccc32)C1=O)N1CCN(C(=O)c2ccco2)CC1 (stereo not drawn)
    7.9%	-10%	-2%	0
O=C(O)CSCC(=O)NCc1csc2ccc(Cl)cc12
    1.8%	9%	3%	-3
COc1ccc(-c2[nH]ncc2CNCCc2ncccc2C)cc1F
    -0.9%	-3%	-5%	4
CN(c1ccccc1)S(=O)(=O)c1ccc(Cl)c(C(=O)Nc2ccc(N3CCOCC3)cc2)c1
    -3.1%	0%	14%	-11
CCOC(=O)C1(Cc2ccccc2)CCN(Cc2cccc3c2OCO3)CC1
    4.2%	19%	7%	4
Cc1cc(=O)oc2cc(NC(=O)c3cccc(S(=O)(=O)N(C)C)c3)ccc12
    1.5%	9%	-46%	x
CC1(c2ccc3noc(-c4ccc(Cl)cc4)c3c2)OCCO1
    0.3%	2%	-5%	4
CCCCc1nnc(NC(=O)CSc2nc(N)cc(=O)[nH]2)s1
    0.7%	-4%	0%	0
CC(=O)N[C@H]1[C@H]([C@H](O)[C@H](O)CO)O[C@](O)(C(=O)O)C[C@@H]1O
    u	13%	x	x
Cc1cc2ccc(C)c(C)c2nc1SCC#N
    -0.1%	3%	-9%	0
CC(=O)Nc1ccc(SCC(=O)NC(=O)c2ccccc2Br)cc1
    -2.6%	10%	x	x
COc1ccc(C(C#N)CCC2OCCO2)cc1OC (stereo not drawn)
    -0.1%	-7%	x	x
NC(=S)N=Nc1c(O)n(Cc2ccccc2)c2ccccc12
    0.6%	7%	-4%	6

3 entries already listed, arranged by the number in miR-21 reporter, descending.
| Molecule | miR-21 reporter |
| --- | --- |
| CCOC(=O)C1(Cc2ccccc2)CCN(Cc2cccc3c2OCO3)CC1 | 7% |
| CCCCc1nnc(NC(=O)CSc2nc(N)cc(=O)[nH]2)s1 | 0% |
| Cc1cc(=O)oc2cc(NC(=O)c3cccc(S(=O)(=O)N(C)C)c3)ccc12 | -46% |

Additional compounds
Fields – Rango-impB inh	Rango release inh	miR-21 reporter	GLA inh pH 4.5
O=C(CCCn1c(=O)c2sccc2n(CC(=O)NCC2CCCO2)c1=O)NCc1ccco1 (stereo not drawn)
    -0.2%	1%	-5%	4
N#Cc1cc(C#N)c(SCC(=O)N2CC(=O)Nc3ccccc32)nc1N
    u	u	x	x
C[C@H](CO)N1C[C@H](C)[C@@H](CN(C)S(=O)(=O)c2cccs2)Oc2c(NC(=O)Cc3ccccc3)cccc2C1=O
    -0.4%	-2%	x	x
O=C(Nc1nc2ccc(F)cc2s1)c1cccc(S(=O)(=O)N2CCc3ccccc32)c1
    0.1%	0%	-17%	-13
COc1ccc(N2CCN(C(=O)CSc3ncnc4c3cnn4-c3ccccc3C)CC2)cc1
    -0.5%	17%	0%	-3
Cc1ccccc1NC(=O)Nc1ccccn1
    -2.7%	24%	-36%	x
CCCCc1cc(=O)oc2cc(C)cc(OCC(=O)NCCN3CCOCC3)c12
    -0.3%	29%	-2%	x
Cc1ccc(-c2nnn(CC(=O)N(c3ccccc3F)C(C(=O)NC3CCCC3)c3ccncc3)n2)o1 (stereo not drawn)
    -2.4%	-10%	0%	x
COc1ccc([N+](=O)[O-])cc1NC(=O)CCS(=O)(=O)c1ccc(Br)cc1
    -4.2%	16%	5%	x
O=C(OCCOc1ccc(Br)cc1)c1ccc(Cl)c(S(=O)(=O)N2CCOCC2)c1
    1.3%	11%	x	x
O=C(OCC(=O)N1CCN(C(=O)c2ccco2)CC1)c1ccccc1Cc1ccccc1
    -0.8%	4%	-29%	-11
NNC(=O)c1cc2ccccc2cc1O
    u	u	-5%	4
COc1ccc(Cl)cc1NC(=S)N(CCCN1CCOCC1)Cc1cn(C)c2ccccc12
    0.7%	3%	-6%	-9
CCOc1ccc(OCC(=O)Nc2ccc(N3CCCCC3)cc2)cc1
    -2.2%	-3%	-3%	x
O=C1OC2(CCCC2)OC(=O)C1=Cc1c[nH]c2ccccc12
    u	-26%	-41%	-3
CCOC(=O)CC(NC(=O)Cn1nnc(-c2ccccc2Cl)n1)c1ccc(OC)cc1 (stereo not drawn)
    u	5%	0%&1%	2
COc1ccc(C2C(C(=O)c3ccco3)=C(O)C(=O)N2CCN2CCOCC2)cc1 (stereo not drawn)
    2.8%	13%	-5%	x
COc1cccc(NC(=O)c2cc(S(=O)(=O)N3CCc4ccccc43)cn2C)c1
    -3.0%	-3%	2%	x
NS(=O)(=O)c1ccc(NC(=O)CN2CCCCC2)cc1
    -5.2%	-3%	7%	-4
Cc1ccccc1SCC(=O)OCC(=O)Nc1ccc(N(C)C)cc1
    1.7%	-4%	-1%	-1
Cc1nc(NC(=O)/C=C/c2ccc(Cl)cc2Cl)sc1C(=O)N(C)C
    1.1%	-7%	-5%	-5
N=c1c2c(-c3ccccc3)c(-c3ccccc3)n(Cc3ccccc3)c2ncn1CCCn1ccnc1
    1.2%	-8%	10%	-31
Cc1ccc(-n2nnnc2Sc2nc([N+](=O)[O-])nn2C)cc1C
    -3.5%	10%	u	1
COC(=O)[C@H](C)NC(=O)Nc1cc(OC)ccc1OC
    3.4%	-20%	-5%	5
COCCn1c(Cc2ccccc2)nnc1SCC(=O)Nc1ccccc1
    4.2%	4%	0%	7
c1ccc(-c2nc(Sc3ncnc4c3cnn4-c3ccccc3)n[nH]2)cc1
    x	x	-6%	4
O=C1COc2ccc(C(=O)COC(=O)c3ccccc3F)cc2N1
    2.5%	-11%	x	x
CS(=O)(=O)c1ccc(Cl)c(NC(=O)c2cc(=O)[nH]c3ccc(S(=O)(=O)N4CCOCC4)cc23)c1
    -0.4%	-4%	x	x
Cc1ccc(Nc2c(-c3ccc(C)o3)nc3cnccn23)cc1
    u	u	-57%	-2
C=CC[C@@H](CC(=O)N[C@H](CO)Cc1ccccc1)C(=O)N[C@H](C)COC(=O)[C@@H](CC=C)Cc1ccc(F)cc1
    -4.6%	22%	x	x
COC(=O)C1CCN(C(=O)NC2CC(=O)N(c3ccc4c(c3)OCCO4)C2)CC1 (stereo not drawn)
    -4.9%	0%	x	x
COc1ccc(Cc2noc(CN3CCN(Cc4cccc(Cl)c4)CC3)n2)cc1OC
    -0.5%	-11%	2%	-2
CN(CC(=O)Nc1ccc(S(N)(=O)=O)cc1)C1CCCCC1
    -0.8%	5%	-1%	x
CCOc1ccc(NC(=O)CCSc2ccc(C)cc2)cc1
    -0.9%	-4%	-2%	6
CC(C)=CC(=O)OCc1cc([N+](=O)[O-])cc2c1OCOC2
    0.7%	-14%	-56%	-7
COC(=O)C1=C(CN2CCN(C)CC2)NC(=O)NC1c1cc(C)ccc1C (stereo not drawn)
    0.1%	-4%	-1%	3
COCCn1c(SCC(=O)NCc2cccs2)nnc1-c1ccc(OC)cc1
    2.8%	22%	-5%	-2
CN(CC(=O)Nc1ccccc1Cl)C(=O)CSc1nc2ccccc2s1
    1.7%	25%	-7%	1

An excerpt, so the mix of outcomes need not match the whole.
